HNF4A DNA FP = change in binding of human HNF4 alpha to DNA; P41235; HNF4a-FITC DNA binding, fluorescence polarization, 1 h; activity change, % at 10 µM; actives 0.3% (n = 360,000); AID 1224865; in the data active = activity change above about 30%, passing the limit was not always enough;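 note: controls were the assay level and a saturating level of protein; the project sought stronger binding though the title names inhibitors; some compounds called inactive have numbers as strong as hits; positive values seem to mean higher polarization but the record does not say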
Vif TR-FRET = inhibitors of Vif binding to APOBEC3G peptide, primary screen, biochemical, TR-FRET, GST-Vif 1-94, biotin-A3G peptide, dose response retest (AID 1117319). TR-FRET GST-Vif / biotin-A3G peptide binding; higher % means a stronger effect; test concentration not given here; strong numbers were not always called active. inhibition, %, or IC50 in µM where a hit was titrated. actives 0.57% (n = 260,000);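 active = above the screen mean plus three standard deviations and confirmed in dose response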;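 note: Vif residues 1-94 fused to GST binding biotinylated APOBEC3G peptide 110-148; 0% = full assay without inhibitor and 100% = GST in place of GST-Vif; retest series ran down from 100 µM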
Bfl-1 A1 inh = inhibitors of the anti-apoptotic protein A1, read as caspase activation; MEF A1-2A-BIM cells, Caspase-Glo 3/7 luminescence, 3 h; percent of clofoctol response, vehicle zero; caspase activation, % (concentration not given with the values); actives 0.066% (n = 330,000); AID 2462;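 active = over half of replicate activation scores above 10%, or exactly half above 10 with the replicate mean above 10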;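 note: wells of about 30 µL received 50 nL stock; many hits fall short of the cut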
UCH37 DUB inh = human UCH37 deubiquitinating enzyme inhibition | purified proteasome/UCH37, Ub-AMC cleavage fluorescence | actives 0.33% (n = 330,000) | Q9Y5K5 | inhibition, % (no concentration beside the values);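 active = mean of two replicates above 20%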;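 note: 0% = compound-free wells with enzyme and 100% = wells lacking proteasome; stock transfer was 100 nL into about 20 µL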
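Material: human UCH37 enzyme supplied as purified proteasome complex / Amount: 0.15 nM proteasome as dispensed / Buffer or medium: pH 7.4 Tris-HCl (50 mM) with ovalbumin, ATP-MgCl2, DTT / Times: preincubation 30 min, reaction 25 min, room temperature / Technique: AMC fluorescence from Ub-AMC cleavage, excitation 355 nm, emission 460 nm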
B2AR ag = agonists of human beta-2 adrenergic receptor inducing internalization; P07550; AID 504454; Am2.2-beta2AR cells, FAP receptor internalization, flow cytometry; reference of the scale not given here; response, % (test concentration not listed); actives 0.43% (n = 340,000);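 active = response above a set limit, near 3 SD of response in nonfluorescent compounds, cut at about 42% in these data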;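 note: stock transfer was 100 nL into about 11 µL; a reference agonist was the positive control; negative values mostly stem from fluorescent compounds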
LANA-H2A inh = blocks KSHV LANA binding to histone H2A/H2B | actives 0.6% (n = 320,000) | cell-free LANA-H2A/H2B peptide, fluorescence polarization | AID 2629 | Q9QR71 | inhibition, % (test concentration not listed); in the data active = inhibition mostly above about 10%, no sharp cut-off; inactive = mostly below about 6.7%;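 note: stock transfer was 7.5 nL into about 10 µL; 0% = median of vehicle wells and 100% = median of positive control wells; one replicate is shown; the record names a cut of 25% in any replicate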
Target sequence (Q9QR71 whole entry, looked up): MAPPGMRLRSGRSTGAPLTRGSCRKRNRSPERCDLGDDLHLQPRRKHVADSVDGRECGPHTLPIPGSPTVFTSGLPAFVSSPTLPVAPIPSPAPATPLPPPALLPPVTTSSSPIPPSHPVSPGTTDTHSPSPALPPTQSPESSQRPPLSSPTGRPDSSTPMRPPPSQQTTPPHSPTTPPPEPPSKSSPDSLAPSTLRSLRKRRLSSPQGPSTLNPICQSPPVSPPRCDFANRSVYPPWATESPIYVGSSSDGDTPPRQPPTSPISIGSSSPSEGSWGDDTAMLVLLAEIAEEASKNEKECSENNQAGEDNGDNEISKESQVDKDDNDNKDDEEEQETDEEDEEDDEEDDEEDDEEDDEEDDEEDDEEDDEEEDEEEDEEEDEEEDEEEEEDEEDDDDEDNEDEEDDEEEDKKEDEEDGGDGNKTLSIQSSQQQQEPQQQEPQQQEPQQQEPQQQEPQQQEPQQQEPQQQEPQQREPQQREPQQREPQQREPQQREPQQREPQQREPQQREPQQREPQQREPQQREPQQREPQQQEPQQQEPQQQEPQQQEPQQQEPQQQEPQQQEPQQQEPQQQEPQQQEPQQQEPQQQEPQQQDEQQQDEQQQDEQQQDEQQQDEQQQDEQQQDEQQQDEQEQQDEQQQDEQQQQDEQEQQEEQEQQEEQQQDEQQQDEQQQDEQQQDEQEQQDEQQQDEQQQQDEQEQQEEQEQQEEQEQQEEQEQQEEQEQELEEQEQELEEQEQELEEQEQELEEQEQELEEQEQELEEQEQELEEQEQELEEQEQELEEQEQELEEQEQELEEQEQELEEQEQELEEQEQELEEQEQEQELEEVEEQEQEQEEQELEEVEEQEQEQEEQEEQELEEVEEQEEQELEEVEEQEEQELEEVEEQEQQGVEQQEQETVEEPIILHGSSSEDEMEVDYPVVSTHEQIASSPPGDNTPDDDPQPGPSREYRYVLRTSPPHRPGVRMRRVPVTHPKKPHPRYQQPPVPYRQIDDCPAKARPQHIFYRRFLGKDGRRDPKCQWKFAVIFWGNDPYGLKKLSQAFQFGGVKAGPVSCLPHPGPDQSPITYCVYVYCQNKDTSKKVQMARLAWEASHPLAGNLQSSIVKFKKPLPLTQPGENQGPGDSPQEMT
E coli growth = blocks Escherichia coli growth; AID 1053175; actives 0.21% (n = 330,000); OD600 absorbance (test concentration not listed); OD600, 23 h; active compounds read low;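 active = OD600 absorbance below the run mean of sample wells minus 3.6 SD, in any replicate, cut at about 0.56 in these data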;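 note: stock transfer was 300 nL into about 60 µL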
* marks the source's active call; other numbers are inactive results; x = no result given.

[1] FC(F)C(F)(F)C1=CC(c2ccccc2)=NCCN1
[2] Cc1c(CN2CCC(CO)(Cc3ccccc3)CC2)c2ccccc2n1C
[3] Cn1c(CN2CCOCC2)nc2cc(NC(=O)c3ccccc3Cl)ccc21
[4] O=C(Nc1cccnc1)c1cc(F)c(F)cc1Cl
[5] O=C(O)c1cc(NS(=O)(=O)c2ccc3ccccc3c2)ccc1O
[6] O=C(Nc1ncccc1Cl)c1cc2ccccc2o1
Screen / compound no. | 1 | 2 | 3 | 4 | 5 | 6
HNF4A DNA FP | 1.9 | 4.3 | -0.1 | -3.4 | -1.3 | -1.4
Vif TR-FRET | 2% | 17% | 18% | 20% | -12% | x
Bfl-1 A1 inh | -0.2 | 1.1 | 0.6 | 0.0 | 1.1 | -5.6
UCH37 DUB inh | 9.5 | 4.4 | 3.6 | 2.5 | -3.9 | -2.0
B2AR ag | 2 | 14 | -2 | 3 | 5 | -15
LANA-H2A inh | -0.1 | -0.2 | 5.3 | -342 | 3.7 | 3.7
E coli growth | 0.7 | 0.72 | 0.67 | 0.68 | 0.66 | 0.69

Single records, from the list above. Order of screens: HNF4A DNA FP	Vif TR-FRET	Bfl-1 A1 inh	UCH37 DUB inh	B2AR ag	LANA-H2A inh	E coli growth
Record of FC(F)C(F)(F)C1=CC(c2ccccc2)=NCCN1 = 1.9	2%	-0.2	9.5	2	-0.1	0.7
Record of O=C(Nc1cccnc1)c1cc(F)c(F)cc1Cl = -3.4	20%	0.0	2.5	3	-342	0.68

Next section
[7] CSc1nc(Sc2ccccc2)c2ccccc2n1
[8] CCCCNC(=O)Nc1cnn(CC)c1C(N)=O
[9] CC1CCCCC1NC(=O)CN1CCN(S(=O)(=O)c2ccc(Br)s2)CC1 (stereo not drawn)
[10] Nc1cccc(S(=O)(=O)Nc2ccc(SC(F)F)cc2)c1
[11] COc1ccccc1CCC(=O)OCC(=O)Nc1c(Br)cc(C)cc1Br
[12] CC1CC(C)CN(CCCNC(=O)c2ccc3c(c2)NC(=O)CS3)C1 (stereo not drawn)
Screen / compound no. | 7 | 8 | 9 | 10 | 11 | 12
HNF4A DNA FP | -2.0 | -0.5 | -2.5 | 0.6 | 0.4 | -0.8
Vif TR-FRET | -11% | -4% | -5% | 1% | x | x
Bfl-1 A1 inh | -0.1 | 0.9 | 0.1 | -0.6 | -1.6 | 0.6
UCH37 DUB inh | 3.4 | 3.8 | 1.5 | 2.3 | 3.6 | 2.9
B2AR ag | 0 | 1 | -7 | 3 | 4 | -3
LANA-H2A inh | -2.9 | -0.1 | 4.2 | -3.6 | -1.2 | 2.2
E coli growth | 0.69 | 0.72 | 0.62 | 0.68 | 0.68 | 0.71

A portion taken from the entries so far, as a working copy:
[1] FC(F)C(F)(F)C1=CC(c2ccccc2)=NCCN1
[2] Cc1c(CN2CCC(CO)(Cc3ccccc3)CC2)c2ccccc2n1C
[3] Cn1c(CN2CCOCC2)nc2cc(NC(=O)c3ccccc3Cl)ccc21
[4] O=C(Nc1cccnc1)c1cc(F)c(F)cc1Cl
[5] O=C(O)c1cc(NS(=O)(=O)c2ccc3ccccc3c2)ccc1O
[6] O=C(Nc1ncccc1Cl)c1cc2ccccc2o1
[7] CSc1nc(Sc2ccccc2)c2ccccc2n1
[8] CCCCNC(=O)Nc1cnn(CC)c1C(N)=O
Screen / compound no. | 1 | 2 | 3 | 4 | 5 | 6 | 7 | 8
HNF4A DNA FP | 1.9 | 4.3 | -0.1 | -3.4 | -1.3 | -1.4 | -2.0 | -0.5
Vif TR-FRET | 2% | 17% | 18% | 20% | -12% | x | -11% | -4%
Bfl-1 A1 inh | -0.2 | 1.1 | 0.6 | 0.0 | 1.1 | -5.6 | -0.1 | 0.9
UCH37 DUB inh | 9.5 | 4.4 | 3.6 | 2.5 | -3.9 | -2.0 | 3.4 | 3.8
B2AR ag | 2 | 14 | -2 | 3 | 5 | -15 | 0 | 1
LANA-H2A inh | -0.1 | -0.2 | 5.3 | -342 | 3.7 | 3.7 | -2.9 | -0.1
E coli growth | 0.7 | 0.72 | 0.67 | 0.68 | 0.66 | 0.69 | 0.69 | 0.72

[9] CC1CCCCC1NC(=O)CN1CCN(S(=O)(=O)c2ccc(Br)s2)CC1 (stereo not drawn)
[10] Nc1cccc(S(=O)(=O)Nc2ccc(SC(F)F)cc2)c1
Screen / compound no. | 9 | 10
HNF4A DNA FP | -2.5 | 0.6
Vif TR-FRET | -5% | 1%
Bfl-1 A1 inh | 0.1 | -0.6
UCH37 DUB inh | 1.5 | 2.3
B2AR ag | -7 | 3
LANA-H2A inh | 4.2 | -3.6
E coli growth | 0.62 | 0.68

(further entries)
[13] Cc1ccc(N2C(=O)C3ON(c4ccccc4)C(c4ccncc4)C3C2=O)cc1 (stereo not drawn)
[14] O=[N+]([O-])c1cc(/C=N/n2c(-c3ccncc3)n[nH]c2=S)ccc1Cl
[15] NC(=O)c1ccsc1NC(=O)COC(=O)COc1ccccc1F
[16] O=C(/C=C/c1cccs1)N1CCc2ccccc21
[17] COCC1CCCN(C(=O)c2cc(COc3cccc4cccnc34)on2)C1 (stereo not drawn)
[18] Cc1cccc(C(=O)Nc2nnc(-c3ccco3)o2)c1
Screen / compound no. | 13 | 14 | 15 | 16 | 17 | 18
HNF4A DNA FP | -1.7 | 0.2 | -1.0 | -1.2 | 8.0 | -1.0
Vif TR-FRET | 5% | 13% | 16% | -4% | x | x
Bfl-1 A1 inh | 0.8 | -0.5 | 1.2 | 0.2 | -0.4 | -0.8
UCH37 DUB inh | 2.3 | x | 2.1 | 10 | -5.8 | 5.6
B2AR ag | 2 | 2 | 1 | -13 | 12 | 11
LANA-H2A inh | -1.0 | 4.6 | 3.1 | 1.9 | 2.3 | -4.5
E coli growth | 0.69 | x | 0.64 | 0.67 | 0.71 | 0.58

[19] COc1ccc(N2C(=O)c3ccccc3NC2c2ccc(OC)c(CN3CCOCC3)c2)cc1 (stereo not drawn)
[20] CC(C)NC(=O)[C@H]1N2C(=O)c3ccccc3C2SC1(C)C (stereo partly drawn)
[21] Cc1onc(-c2c(Cl)cccc2Cl)c1NC(=O)NNc1c(Cl)cncc1Cl
[22] CCCN1Cc2cccc(C(=O)NCCCOC(C)C)c2C1=O
[23] O=C(Nc1cccc(S(=O)(=O)N2CCOCC2)c1)c1cn(-c2ccccc2)nc1-c1ccccc1
[24] CC1(C)C(=O)Nc2ccccc2N1C(=O)CN1C(=O)c2ccccc2C1=O
Screen / compound no. | 19 | 20 | 21 | 22 | 23 | 24
HNF4A DNA FP | -2.1 | -1.1 | -1.5 | 2.1 | -0.7 | 0.5
Vif TR-FRET | -9% | 5% | -3% | 11% | 3% | 3%
Bfl-1 A1 inh | 0.0 | -1.3 | 1.2 | -0.2 | 0.4 | 1.5
UCH37 DUB inh | -61 | 3.0 | 1.7 | 2.1 | 2.2 | 0.5
B2AR ag | 2 | -8 | 3 | -8 | -10 | -10
LANA-H2A inh | 11 | 2.9 | 0.7 | -0.3 | 2.2 | -0.8
E coli growth | 0.67 | 0.65 | 0.65 | 0.66 | 0.71 | 0.71

[25] OCCC1CN(Cc2ccccc2OC2CCCC2)CCN1Cc1ccsc1 (stereo not drawn)
[26] Cc1c(C)n(CCC(=O)O)c2ccccc12
[27] COC(=O)COc1ccc(Cl)cc1C1Nc2ccccc2C(=O)N1c1ccc(OC)cc1 (stereo not drawn)
[28] CCc1nc2ccccc2c(C(=O)OCC(=O)NC2CCCC2)c1C
[29] Cc1ccccc1Nc1c(N)c(=O)oc2ccccc12
Screen / compound no. | 25 | 26 | 27 | 28 | 29
HNF4A DNA FP | 1.1 | -1.0 | 23 | 6.4 | -0.8
Vif TR-FRET | x | 22% | 3% | 4% | 3%
Bfl-1 A1 inh | 0.6 | -0.3 | -0.5 | -0.4 | -1.0
UCH37 DUB inh | 0.1 | -2.9 | -49 | -0.3 | -1.6
B2AR ag | -13 | 1 | 10 | -4 | 2
LANA-H2A inh | 3.5 | 1.0 | 0.1 | 3.4 | -5.0
E coli growth | 0.67 | 0.7 | 0.74 | 0.66 | 0.7

No enrichment for hits; 2.1% or so of the library scored in one or more.
